Ecoli growth = E. coli growth inhibition; OD600 absorbance (concentration not given with the values); 330,000 tested, 0.21% active; Escherichia coli growth, OD600, 23 h; active compounds read low;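 active = OD600 absorbance below the run mean of sample wells minus 3.6 SD, in any replicate, cut at about 0.56 in these data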;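 also: stock transfer was 300 nL into about 60 µL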
Vif TR-FRET = inhibitors of Vif binding to APOBEC3G peptide, primary screen, biochemical, TR-FRET, GST-Vif 1-94, biotin-A3G peptide, dose response retest (AID 1117319) | TR-FRET GST-Vif / biotin-A3G peptide binding; higher % means a stronger effect; test concentration not given here; strong numbers were not always called active | one-dose inhibition, %; IC50 in µM for titrated hits | 260,000 tested, 0.57% active;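 active = above the screen mean plus three standard deviations and confirmed in dose response; inconclusive = results disagree or hit not tested in dose response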;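 also: Vif residues 1-94 fused to GST binding biotinylated APOBEC3G peptide 110-148; 0% = full assay without inhibitor and 100% = GST in place of GST-Vif; retest series ran down from 100 µM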
UCH37 inh = inhibitors of human deubiquitinating enzyme UCH37 | Q9Y5K5 | purified proteasome/UCH37, Ub-AMC cleavage fluorescence | inhibition, % (test concentration not listed) | 330,000 tested, 0.33% active | AID 588478;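 active = mean of two replicates above 20%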;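 also: 0% = compound-free wells with enzyme and 100% = wells lacking proteasome; stock transfer was 100 nL into about 20 µL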
Target sequence (Q9Y5K5 whole entry, looked up): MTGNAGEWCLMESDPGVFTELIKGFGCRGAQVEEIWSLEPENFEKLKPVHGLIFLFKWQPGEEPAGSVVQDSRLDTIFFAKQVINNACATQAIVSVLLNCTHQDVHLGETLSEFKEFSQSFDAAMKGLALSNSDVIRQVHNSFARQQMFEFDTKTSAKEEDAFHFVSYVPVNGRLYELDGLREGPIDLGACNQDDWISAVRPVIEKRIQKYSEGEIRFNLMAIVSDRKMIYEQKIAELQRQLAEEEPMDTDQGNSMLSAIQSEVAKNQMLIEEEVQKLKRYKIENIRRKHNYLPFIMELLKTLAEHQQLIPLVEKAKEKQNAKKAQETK
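Material: Human UCH37 enzyme supplied as purified proteasome complex | Schedule: 30 min preincubation with enzyme, 25 min cleavage at room temperature | Detection: AMC fluorescence 355/460 nm | Measure: % inhibition of Ub-AMC cleavage fluorescence | Controls: Wells without proteasome as full block, compound-free enzyme plus substrate as uninhibited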
RanGTP-Imp inh = disruptors of Ran-importin-beta complex formation – biochemical, FRET, CFP-Ran, YFP-importin-beta, homogeneous, primary screen | cell-free CFP-Ran/YFP-importin-beta FRET ratio | inhibition, % (test concentration not listed) | 300,000 tested, 1.1% active | AID 2216;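 active = most replicates above 15%; inconclusive = exactly half above 15%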;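 also: 0% = DMSO wells and 100% = Ran loaded with GDP instead of GTP; wells of about 40 µL received 100 nL stock; the first replicate is given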
FGF22 binding = FGF22 (human) thermal shift binding; Q9HCT0; recombinant FGF22 thermal shift, SYPRO orange fluorescence; percent of sucrose octasulfate shift, DMSO zero; calls only at 9.99 µM; 340,000 tested, 1.5% active; AID 651658;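 active = melting point raised past a set limit in the mean and every replicate; inconclusive = no clear call; three in four hits are not shown here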
Target sequence (Q9HCT0 whole entry, looked up): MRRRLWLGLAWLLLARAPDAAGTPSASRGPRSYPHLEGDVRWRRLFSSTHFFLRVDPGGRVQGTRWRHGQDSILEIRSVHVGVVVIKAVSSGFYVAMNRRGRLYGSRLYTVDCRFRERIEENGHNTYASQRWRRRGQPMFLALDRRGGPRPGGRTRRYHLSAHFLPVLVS
MLL AF4-AF9 inh = inhibitors of human MLL-AF4/AF9 interaction; P42568; AlphaScreen, biotin-AF4 peptide binding to FLAG-AF9; inhibition, % at 10 µM; 350,000 tested, 0.47% active;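 active = every replicate reaching a set inhibition limit, whatever the replicate mean, cut at about 25% in these data; inconclusive = mean inhibition reaches that limit but some replicates miss it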;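 also: 0% = plate neutral control median and 100% = total signal loss; the record names both 10 and 1 µM as test concentration; the first replicate is given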
HNF4A DNA FP = change in binding of human HNF4 alpha to DNA; HNF4a-FITC DNA binding, fluorescence polarization, 1 h; 360,000 tested, 0.3% active; activity change, % at 10 µM; P41235; in the data active = activity change above about 30%, passing the limit was not always enough;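 also: controls were the assay level and a saturating level of protein; the project sought stronger binding though the title names inhibitors; some compounds called inactive have numbers as strong as hits; positive values seem to mean higher polarization but the record does not say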
Target sequence (P41235 whole entry, looked up): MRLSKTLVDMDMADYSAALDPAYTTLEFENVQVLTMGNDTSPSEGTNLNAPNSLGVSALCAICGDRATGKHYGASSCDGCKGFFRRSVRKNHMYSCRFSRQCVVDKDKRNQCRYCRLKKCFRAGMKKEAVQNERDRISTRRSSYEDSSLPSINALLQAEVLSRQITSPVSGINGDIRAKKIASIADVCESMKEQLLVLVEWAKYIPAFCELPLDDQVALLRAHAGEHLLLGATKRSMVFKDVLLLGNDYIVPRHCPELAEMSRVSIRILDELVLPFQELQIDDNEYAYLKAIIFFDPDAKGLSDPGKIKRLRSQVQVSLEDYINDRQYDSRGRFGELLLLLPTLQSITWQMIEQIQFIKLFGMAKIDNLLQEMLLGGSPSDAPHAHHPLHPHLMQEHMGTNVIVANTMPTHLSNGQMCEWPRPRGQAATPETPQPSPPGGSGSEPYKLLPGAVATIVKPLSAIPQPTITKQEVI
The depositor's hits bear a star; i = inactive; ? = inconclusive; . = not tested or not shown; & = joins results of further samples.

Each structure is followed by: FGF22 binding	Ecoli growth	MLL AF4-AF9 inh	UCH37 inh	Vif TR-FRET	RanGTP-Imp inh	HNF4A DNA FP
> COc1ccc(C(CC(=O)N2CCN(c3ccccc3)CC2)c2c(OC)cc(OC)c3ccc(=O)oc23)cc1 (stereo unspecified)
→ i	0.65	5.2	-3.7	.	-1.9	-0.4
> CCOC(=O)c1sc(NC(=O)C2CC(=O)N(c3ccc(C)cc3)C2)nc1C (stereo unspecified)
→ i	0.7	1.3	0.1	.	11	-0.2
> COc1ccc(N/C=C(\C#N)S(=O)(=O)c2ccc(OC)cc2)cc1
→ i	0.69	-0.6	6.0	-7%	3.5	-4.8
> CC(C)C(=O)Nc1csc(C(F)(F)F)c1-c1ccccc1
→ i	0.66	-2.7	5.4	-5%	-1.1	-1.8
> CC(=O)c1ccc(S(=O)(=O)Nc2ccc(S(=O)(=O)N3CCCCC3)cc2)cc1
→ i	0.69	-8.9	2.9	.	.	-0.7
> COc1ccc(C(=O)NCc2csc(C(C)C)n2)cc1OC1CCN(C(C)=O)CC1
→ i	0.67	-3.0	-0.8	4%	1.6	2.3
> COc1ccc(-n2cnnc2SCC(=O)Nc2ccc(C(N)=O)cc2)cc1
→ i	0.7	-1.7	-0.9	0%	-0.3	0.3
> COc1ccc(N/C=C(\[N+](=O)[O-])S(=O)(=O)c2ccccc2)cc1
→ i	0.68	-3.0	5.3	1%	4.9	2.8
> CCN(C(=O)COC(=O)c1cccnc1SC)C1CCCCC1
→ i	0.69	-5.5	4.2	11%	.	0.0
> CCOC(=O)C1CCN(C(=O)CSC2=NCCS2)CC1
→ .	0.71	.	0.9	-2%	6.4	1.1
> Nc1c(C(=O)CSc2nc3ccccc3o2)c(=O)[nH]c(=O)n1C1CC1
→ i	0.66	0.7	1.6	0%	.	-1.1
> CC(C)NC(=O)NC(=O)COC(=O)c1cc[n+]([O-])cc1
→ i	0.7	-2.6	-2.3	-3%	-2.3	2.4
> COc1ccc(-c2cccc(NC(=O)c3cccs3)c2)nn1
→ i	0.67	-13	2.7	-1%	-4.3	2.8
> O=C(O)CC(Cc1ccc(Cl)cc1)C(=O)Nc1ccccc1 (stereo unspecified)
→ i	0.67	-3.9	4.4	-1%	3.6	0.5
> CCCCNc1ccc(C(CC(N)=O)NC(=O)c2ccccc2)cc1[N+](=O)[O-] (stereo unspecified)
→ .	0.66	.	0.0	6%	-4.8	11
> O=C(CCn1c(=S)oc2ccccc21)NC1CCCCC1
→ i	0.72	6.7	0.9	1%	-2.3	-1.8
> O=C(NCC(c1ccco1)N1CCc2ccccc21)c1ccccc1Br (stereo unspecified)
→ .	0.68	7.8	1.0	1%	-0.4	0.2
> CCOc1cc(C(=O)N2CCN(c3ccccn3)CC2)cc(OCC)c1OCC
→ i	0.69	-13	0.2	.	4.0	2.0
> CCn1c(/C=C/N(C(C)=O)c2ccccc2)[n+](CCCS(=O)(=O)[O-])c2cc(Cl)c(Cl)cc21
→ i	0.65	-0.1	6.5	24%	.	1.0
> C[C@H]1CN([C@@H](C)CO)C(=O)CCCn2nncc2CO[C@@H]1CN(C)C(=O)Nc1cccc2ccccc12
→ i	.	-6.2&0.2	.	4%	.	3.0
> O=C(CC(=O)N/N=C\c1cccc(Cl)c1Cl)NCc1ccccc1
→ i	.	-3.8	.	29%	-1.9	1.5
> COC(=O)C[C@@H]1CC[C@H](NC(=O)c2ccccc2)[C@@H](CO)O1
→ i	.	-1.6&0.8	.	.	.	0.1
> Cc1cc(C)cc(Cn2cc(CN3CC(N4CCCC4)CS3(=O)=O)nn2)c1 (stereo unspecified)
→ i	.	-2.1	.	.	.	-0.1
> CCCCOCCCNC(=O)C[C@@H]1C[C@@]2(C(=O)OC)CC(C)(C)CC=C2N(Cc2ccco2)C1=O
→ i	.	1.7	.	.	.	-1.8
> Cn1c(SCc2ccccc2F)nc2ccccc2c1=O
→ i	0.71	-2.2	5.9	.	-4.8	8.0
> COc1ccc(N/C=C\C(=O)c2ccc3c(c2)OCO3)cc1
→ .	0.7	.	3.0	-3%	1.2	10
> N#C/C(=C\c1ccc(OCc2ccc(Br)cc2)cc1)C(=O)Nc1cccc(C(=O)O)c1
→ i	0.67	-0.5	4.7	0%	3.9	-6.6
> COc1ccc(N2CCc3c(C)nc(SC)nc32)cc1
→ i	0.67	2.7	-32	-42%	-0.9	2.2
> COCc1nnc(NC(=O)C23CC4CC(CC(C4)C2)C3)s1
→ i	0.63	-1.3	0.1	0%	.	-3.4
> CC(C)(C)c1cc(=O)[nH]c(SCc2ccccc2Cl)n1
→ i	0.71	-1.2	5.6	.	.	-3.0
> CCn1c(SCC(=O)NCc2cccs2)nnc1-c1ccncc1
→ .	0.7	-3.6	-0.9	-1%	5.9	1.2
> COc1cc(/C=C/C(=O)OCC(=O)c2c[nH]c3ccccc23)ccc1OC(F)F
→ i	0.68	-0.5	1.8	12%	-0.3	3.1
> Cn1nc(C(F)(F)F)c(/C=N/OC(=O)c2ccccc2Cl)c1SCc1ccccc1Cl
→ .	.	.	.	-1%	-2.7	0.0
> O=C(CCNC(=O)c1ccc(Cl)cc1)Nc1ccccc1N1CCCCC1
→ i	0.69	-4.5	1.5	-1%	-4.1	1.8
> C=CCn1c(CCNC(=O)c2ccc(Cl)c(Cl)c2)nnc1SCCOc1ccc(OC)cc1
→ i	0.71	2.3	0.2	-6%	-3.0	1.6
> CS(=O)(=O)Nc1cccc(-c2cn3c(n2)SCC3)c1
→ i	0.68	-3.2	1.4	-1%	-1.6	-1.6
> COc1ccc2[nH]c3c(=O)n(Cc4ccco4)cnc3c2c1
→ .	0.72	.	-58	0%	-2.9	0.5
> COc1ccc(C2C(C(=O)O)CCC(=O)N2c2ccc(C)cc2)cc1OC (stereo unspecified)
→ i	0.64	-0.6	0.8	2%	2.5	-3.0
> Cc1ccc(NC(=O)C2=CC(c3cccs3)=NS(=O)(=O)N2C)cc1
→ i	0.68	2.1	4.6	.	-1.8	3.8
> Cn1nccc1C(=O)Nc1cccc(C(F)(F)F)c1
→ i	0.68	-1.7	2.5	3%	3.2	2.7
> CCOc1ccc(NC(=O)CCn2nc(C)c(S(=O)(=O)N3CCCCC3)c2C)cc1
→ i	0.65	-2.8	0.1	.	-0.5	-0.4
> CN(CC(=O)NCC1COc2ccccc2O1)S(=O)(=O)c1ccc(Cl)cc1 (stereo unspecified)
→ i	0.65	-8.3	1.8	-5%	.	4.9
> CCN(CC(=O)NCc1cccs1)C(=O)CCCOc1ccc(C(C)(C)C)cc1
→ i	0.64	-2.1	0.7	-7%	.	-1.0
> Cc1nn(C)c(C)c1S(=O)(=O)N(CC(=O)NCCCN1CCC(C)CC1)c1ccc(C(C)C)cc1
→ i	0.7	-0.4	3.7	-1%	4.9	1.7
> CCNC(=O)OCCC12CC3CC(CC(C3)C1)C2
→ .	0.7	.	1.2	.	.	0.9
> O=C(c1cccc(Cl)c1)N1CCN(C2CCCCC2)CC1
→ i	0.68	-2.0	-0.6	-5%	4.2	1.4
> NC(=O)c1ccccc1OCC(=O)N1CCC(Cc2ccccc2)CC1
→ i	0.66	0.0	0.8	.	.	-0.4
> COC(=O)c1ccccc1NC(=O)CCCOc1cc(=O)n(C)c2ccccc12
→ i	.	-1.9	.	.	.	0.8
> N#C/C(=C\c1ccc(OCc2ccccc2)cc1)C(N)=O
→ i	0.65	1.5	8.8	7%	-2.2	0.1
> O=C(c1cccs1)N1CCN(c2ncc(C(F)(F)F)cc2Cl)CC1
→ i	0.71	0.5	3.1	.	-2.3	0.1
> Cc1cccc(-n2c(Cc3cc(=O)[nH]c(=O)[nH]3)nnc2SCC(=O)NCC2CCCO2)c1 (stereo unspecified)
→ i	0.73	-5.1	-2.1	6%	.	1.8
> CC(C)C[C@H](NC(=O)c1nc[nH]c1C(=O)N1CCC(C)CC1)C(=O)OCc1ccccc1
→ i	.	4.0	5.6	0%	3.9	2.9
> O=C(COC(=O)Cc1c(Cl)cccc1Cl)Nc1ccc(OC(F)(F)F)cc1
→ i	0.7	-3.1	2.4	?	-1.1	3.5
> Cc1cc(C(=O)N2CCCC(N3CCN(c4cccc(Cl)c4)CC3)C2)nc(C)n1 (stereo unspecified)
→ i	0.73	-0.9	2.0	-2%	-0.6	-2.9
> N#Cc1ccccc1S(=O)(=O)N1CCN(Cc2cccs2)CC1
→ i	.	1.7	.	2%	.	-5.3
> CC(=O)N1CCN(S(=O)(=O)c2cccc(C(=O)NCCC3=CCCCC3)c2)CC1
→ i	0.68	-0.5	3.9	-1%	0.3	-0.1
> CC1=C(C(=O)OCc2cc(C)on2)N2C(=O)[C@@H](NC(=O)OCc3cc(C)on3)[C@H]2SC1
→ i	.	-23	-1.4	.	.	4.0
> O=C(NCc1cccc(Cl)c1)C1CCC(=O)N(CCCN2CCCC2=O)C1 (stereo unspecified)
→ i	0.7	0.7	-1.7	-5%	0.8	-0.5
> CC(=O)c1ccc(N2CCN(c3ncccn3)CC2)c([N+](=O)[O-])c1
→ i	0.65	2.3	12	.	0.2	0.2
> O=C(CCNC(=O)c1ccc([N+](=O)[O-])cc1)NC1CCCCC1
→ i	0.68	-0.5	2.9	-10%	.	-0.5

Three entries picked at random from the list so far:
Each structure is followed by: FGF22 binding	Ecoli growth	MLL AF4-AF9 inh	UCH37 inh	Vif TR-FRET	RanGTP-Imp inh	HNF4A DNA FP
> O=C(NCC(c1ccco1)N1CCc2ccccc21)c1ccccc1Br (stereo unspecified)
→ .	0.68	7.8	1.0	1%	-0.4	0.2
> COc1ccc(N2CCc3c(C)nc(SC)nc32)cc1
→ i	0.67	2.7	-32	-42%	-0.9	2.2
> O=C(CC(=O)N/N=C\c1cccc(Cl)c1Cl)NCc1ccccc1
→ i	.	-3.8	.	29%	-1.9	1.5

Next part:
Each structure is followed by: FGF22 binding	Ecoli growth	MLL AF4-AF9 inh	UCH37 inh	Vif TR-FRET	RanGTP-Imp inh	HNF4A DNA FP
> O=C(N1CCOCC1)N1CCN(S(=O)(=O)c2ccccc2)C1
→ .	0.72	.	3.9	0%	-1.0	-2.7
> CN(C)C(=O)CN(c1ccc(F)c(Cl)c1)S(C)(=O)=O
→ .	0.63	.	1.8	-3%	5.1	1.1
> COc1ccc(C(=O)N2CCC(C(=O)O)CC2)cc1
→ .	0.73	.	6.5	10%	0.1	1.3
> O=C(CCCN1C(=O)/C(=C\c2cccc(Br)c2)SC1=S)Nc1ccc(C(=O)O)cc1
→ i	.	1.4	.	0%	.	-3.1
> CN(C)CCNc1nc2sc3c(c2c(=O)n1-c1ccc(F)cc1)CCCCC3
→ i	0.69	3.1	5.5	3%	-0.6	2.5
> CC(C)C[C@H](N)c1cn([C@@H](Cc2cc3ccccc3[nH]2)C(=O)N2CCNCC2)nn1
→ .	.	.	0.9	-2%	?	-1.2

Only part of the results is shown; count on the stated rates, not on these rows.
